Lassa entry inh = blocks Lassa virus binding to or entry into cells; Lassa virus pseudotype entry inhibition, cell reporter; control for the full effect not named in the record; Potency, µM (doses to about 37.9 µM), for the others: at the highest dose activity change, negative = inhibition, hits mostly inhibitors; actives 1.2% (n = 300,000); AID 540256; active means well fitted inhibition curve with a large enough effect; inconclusive means small, poorly fitted or top-dose-only effect, or effect the other way; inactive means flat fitted curve, though single readings scatter; tested in HEK293 cells; further: on the % scale 0 is the no-effect control and ±100 the full control effect; nearly all actives have a fitted effect of over 50% in size; luciferase read-out
NS1 inh = inhibitors of influenza NS1 protein function | Potency, µM (series often up to 46.1 µM), without a hit: top-dose activity, positive = more growth | actives 0.4% (n = 270,000) | S. cerevisiae slowed by influenza A NS1, growth recovery by OD600; further: actives are rising curves; nearly all actives have a fitted effect of over 50% in size
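S. cerevisiae expressing influenza A NS1, grown in glucose, washed, then diluted 1:100 into pH 6.0 -URA galactose medium with 23 nl compound. Growth recovery read as OD600; NS1-free strain serves as control.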
Marburg entry inh = inhibitors of Marburg virus binding or cell entry | Potency, µM (top dose mostly 37.8 µM), inactives show top-dose activity change, negative = inhibition, hits mostly inhibitors | Marburg virus pseudotyped entry inhibition, cell reporter; control for the full effect not named in the record; about a third of the inactives were read at about 46 µM | actives 1.8% (n = 300,000); active = well fitted inhibition curve with a large enough effect; inconclusive = small, poorly fitted or top-dose-only effect, or effect the other way; inactive = flat fitted curve, though single readings scatter; tested in HEK293 cells; about a fifth of its hits are not listed in these tables; further: on the % scale 0 is the no-effect control and ±100 the full control effect; luciferase read-out
Cruzain noTriton = inhibitors of Trypanosoma cruzi cruzain without detergent; P25779; purified cruzain, Z-FR-AMC fluorescence, no detergent; Potency, µM, without a hit: max response, negative = inhibition, usual class: inhibitors; actives 2.3% (n = 200,000); active means well fitted curve in the direction sought with a large enough effect; inconclusive means small, poorly fitted or top-dose-only effect, or another doubt; inactive means no such curve, though single readings can be large; an effect the other way counts as inactive or inconclusive;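 further: plate controls were enzyme without inhibitor for no effect and buffer without enzyme for full effect; nearly all actives have a fitted effect of over 40% in size; top concentration of the series not given in the record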
Target sequence (P25779 123-467 limits assumed): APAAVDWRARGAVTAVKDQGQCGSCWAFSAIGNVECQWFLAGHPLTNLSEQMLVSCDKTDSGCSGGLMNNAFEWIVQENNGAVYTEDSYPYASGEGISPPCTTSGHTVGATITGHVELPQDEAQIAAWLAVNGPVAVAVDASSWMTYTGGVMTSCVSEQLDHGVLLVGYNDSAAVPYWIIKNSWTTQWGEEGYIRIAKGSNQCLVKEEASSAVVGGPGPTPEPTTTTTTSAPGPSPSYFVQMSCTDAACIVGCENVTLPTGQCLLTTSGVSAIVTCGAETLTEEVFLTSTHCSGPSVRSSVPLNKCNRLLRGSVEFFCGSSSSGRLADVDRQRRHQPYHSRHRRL
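Detergent-free condition (0.00005% Triton X-100) in acetate buffer pH 5.5 with DTT. 1.5 nM enzyme and compound were pre-mixed 15 min, then 2 uM Z-FR-AMC substrate added; reaction progress from fluorescence change between first and third reads (60 s).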
RE007 growth inh = less growth of the S. pombe RE007 Vpr strain; Potency, µM (series often up to 92.2 µM), without a hit: top-dose activity change, negative = less growth; actives 0.21% (n = 360,000); S. pombe RE007 Vpr strain, BacTiter-Glo ATP luminescence, 24 h; control for the full effect not named in the record; active = well fitted falling curve with a large enough effect; inconclusive = small, poorly fitted or top-dose-only effect; inactive = no such curve, though single readings can be large or run the other way;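 further: on the % scale 0 is the no-effect control and ±100 the full control effect; nearly all actives have a fitted effect of over 50% in size; the assay follows cell death caused by Vpr and the record does not say whether a fall means rescue or toxicity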
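Fission yeast RE007 carrying one integrated HIV-1 vpr copy, seeded at OD 0.01 in PMG+AL medium with 23 nL pinned compound. Grown 24 h at 30 degrees; viability read by BacTiter-Glo luminescence after 5 min.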
Cruzain Triton = cruzain (T. cruzi) inhibition with detergent; purified cruzain, Z-FR-AMC fluorescence, 0.01% Triton; AID 1478; actives 0.43% (n = 200,000); Potency, µM, inactives show max response, negative = inhibition, usual class: inhibitors; P25779; active means well fitted curve in the direction sought with a large enough effect; inconclusive means small, poorly fitted or top-dose-only effect, or another doubt; inactive means no such curve, though single readings can be large; an effect the other way counts as inactive or inconclusive;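 further: plate controls were neutral wells for no effect and buffer without enzyme for full effect; nearly all actives have a fitted effect of over 40% in size; top concentration of the series not given in the record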
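Purified cruzain (1.5 nM final) was preincubated with compounds for 15 min at room temperature in 100 mM sodium acetate pH 5.5, 5 mM DTT, 0.01% Triton X-100. Reaction started with 2 uM Z-FR-AMC; AMC fluorescence change over 60 s gave activity.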
SARS PLpro yeast = inhibitors of SARS-CoV papain-like protease in yeast | S. cerevisiae expressing SARS-CoV PLpro, growth rescue; control for the full effect not named in the record | Potency, µM (highest dose often 32.9 µM), for the others: at the highest dose activity, positive = growth rescue | actives 0.19% (n = 330,000) | AID 485353; further: 0% is about no effect; nearly all actives have a fitted effect of over 55% in size; growth read by luminescence after 48 h
2A StopGo = FMDV 2A StopGo reporter, luciferase signal. human cells with a luciferase reporter of 2A StopGo recoding; control for the full effect not named in the record. Potency, µM (titrated, usually from 57.9 µM), for inactives: top-dose signal change, negative = less light. actives 1.2% (n = 410,000). AID 1159524; active = well fitted falling curve with a large enough effect; inconclusive = small, poorly fitted or top-dose-only effect; inactive = no such curve, though single readings can be large or run the other way; tested in HEK293T cells; further: on the % scale 0 is the no-effect control and ±100 the full control effect; nearly all actives have a fitted effect of over 45% in size; luciferase light after 4 h
Numbers without * were called inactive; [ ] = dose if it differs, or a comment. Unless noted, the call rests on the fitted dose curve; in most records, active means well fitted rising curve with a large enough effect; inconclusive means small, poorly fitted or top-dose-only effect; inactive means no such curve, though single readings can be large or run the other way. Potency means the concentration at half of the fitted maximal effect.

A first look (2 entries):
Results for O=c1cc(-c2ccccc2)nc(Cc2c(Cl)cccc2Cl)[nH]1 ?
Lassa entry inh: 7%[46.1 µM]; NS1 inh: 1%; Marburg entry inh: -3%[46.1 µM]; RE007 growth inh: 11%; SARS PLpro yeast: 0%; 2A StopGo: -8%

Results for COc1cccc(NC(=O)CSc2nnc3c(n2)[nH]c2ccc(C)cc23)c1 ?
Lassa entry inh: -10%; NS1 inh: 4%; Marburg entry inh: 1%[46.1 µM]; RE007 growth inh: 1%; SARS PLpro yeast: 1%; 2A StopGo: -17%

The list itself, from the first entry:
Results for O=c1cc(-c2ccccc2)nc(Cc2c(Cl)cccc2Cl)[nH]1 ?
Lassa entry inh: 7%[46.1 µM]; NS1 inh: 1%; Marburg entry inh: -3%[46.1 µM]; RE007 growth inh: 11%; SARS PLpro yeast: 0%; 2A StopGo: -8%

Results for COc1cccc(NC(=O)CSc2nnc3c(n2)[nH]c2ccc(C)cc23)c1 ?
Lassa entry inh: -10%; NS1 inh: 4%; Marburg entry inh: 1%[46.1 µM]; RE007 growth inh: 1%; SARS PLpro yeast: 1%; 2A StopGo: -17%

Results for CCC(C)NC(=O)Cn1nc([N+](=O)[O-])c(Cl)c1C (configuration not stated) ?
Lassa entry inh: 6%; NS1 inh: 10%; Marburg entry inh: -2%; Cruzain noTriton: 7%; RE007 growth inh: 5%; Cruzain Triton: 4.1%; SARS PLpro yeast: -3%; 2A StopGo: 8%

Results for CSc1nc(C)cc(C)c1C#N ?
Lassa entry inh: 4%; NS1 inh: -9%; Marburg entry inh: 0%; Cruzain noTriton: 4%; RE007 growth inh: 0%; Cruzain Triton: 3.9%; SARS PLpro yeast: -1%; 2A StopGo: 1%

Results for CC(=O)Nc1ccc2c(c1)nc1n2CCN(C(C)c2ccccc2)C1 (configuration not stated) ?
Lassa entry inh: -5%[46.1 µM]; NS1 inh: 9%; Marburg entry inh: inconclusive; RE007 growth inh: -9%; SARS PLpro yeast: 1%; 2A StopGo: -8%

What do the screens show for `Cc1ccc(C)c(NC(=S)N2CCN(S(C)(=O)=O)CC2)c1`?
Lassa entry inh: 13%[46.1 µM]; NS1 inh: 8%; Marburg entry inh: 2%[46.1 µM]; RE007 growth inh: 12%; SARS PLpro yeast: -1%; 2A StopGo: -12%

Results for CCOc1ccc(CNC(=O)CCCn2ccc3cc(S(=O)(=O)N4CCCC4)ccc32)cc1 ?
NS1 inh: 4%; RE007 growth inh: 12%; SARS PLpro yeast: -1%; 2A StopGo: inconclusive

Results for CC(SCC(=O)Nc1ccccc1Br)c1nc2ccccc2c(=O)[nH]1 (configuration not stated) ?
Lassa entry inh: inconclusive; Marburg entry inh: inconclusive; RE007 growth inh: 8%; SARS PLpro yeast: 1%; 2A StopGo: -7%

Results for CCOC(=O)Cc1csc(NC(=O)CC(C)(C)CC(=O)O)n1 ?
Lassa entry inh: 17%; NS1 inh: -2%; Marburg entry inh: -8%[46.1 µM]; RE007 growth inh: 0%; SARS PLpro yeast: 1%; 2A StopGo: 9%

How did C=CCOc1nc2c(c(=O)n(Cc3ccc(Cl)c(Cl)c3)c(=O)n2C)n1C do in these assays?
Lassa entry inh: -4%; Marburg entry inh: 22%; RE007 growth inh: -3%; 2A StopGo: -11%

What do the screens show for `Cc1ccc(/C=C/C(=O)Nc2cccc(S(=O)(=O)N3CCOCC3)c2)o1`?
Lassa entry inh: 4%; NS1 inh: inconclusive; Marburg entry inh: -2%; Cruzain noTriton: -5%; RE007 growth inh: -13%; Cruzain Triton: -12%; SARS PLpro yeast: -7%; 2A StopGo: 24%

Results for O=C(Nc1cccc(-c2nc3cccnc3s2)c1)c1ccco1 ?
Lassa entry inh: 22%; NS1 inh: -35%; Marburg entry inh: 0%; Cruzain noTriton: -9%; RE007 growth inh: inconclusive; Cruzain Triton: -4.5%; SARS PLpro yeast: -12%

Results for CN(CC(=O)Nc1ccccc1Br)C(=O)C(Cc1ccccc1)NC(=O)c1ccccc1 (configuration not stated) ?
Lassa entry inh: inconclusive; NS1 inh: -5%; Marburg entry inh: inconclusive; RE007 growth inh: 2%; SARS PLpro yeast: -7%; 2A StopGo: 27%

How did COc1ccccc1CNC(=O)c1cc(S(=O)(=O)N2CCN(c3ccccc3)CC2)ccc1Cl do in these assays?
Lassa entry inh: -32%; RE007 growth inh: -5%; 2A StopGo: -6%

How did O=C(Nc1ccc(Cl)cn1)C1CCCN(c2ncnc3c2nc2n3CCCCC2)C1 (configuration not stated) do in these assays?
NS1 inh: 9%; RE007 growth inh: 19%; SARS PLpro yeast: -8%; 2A StopGo: -25%

Results for CCOc1ccccc1C(=O)NN1C(=O)CCC1=O ?
Lassa entry inh: 1%; NS1 inh: inconclusive; Marburg entry inh: -38%; Cruzain noTriton: 0%; RE007 growth inh: 9%; Cruzain Triton: -2.1%; SARS PLpro yeast: 6%; 2A StopGo: -6%

What do the screens show for `O=S(=O)(N1CCCCC1)N1CCN(c2cc(Cl)ccc2Cl)CC1`?
Lassa entry inh: -10%; NS1 inh: -31%; Marburg entry inh: inconclusive; RE007 growth inh: -4%; SARS PLpro yeast: -5%; 2A StopGo: inconclusive

What do the screens show for `COc1ccc(CCN(C)C2CCCN(C(=O)CCC(F)(F)F)C2)cc1OC` (configuration not stated)?
Lassa entry inh: -9%; NS1 inh: 2%; Marburg entry inh: 6%; RE007 growth inh: -13%; SARS PLpro yeast: -3%; 2A StopGo: 0%

How did COC(=O)c1[nH]c2ccc(Cl)cc2c1NC(=O)CN1CCc2cc(OC)c(OC)cc2C1 do in these assays?
Lassa entry inh: inconclusive; NS1 inh: 8%; Marburg entry inh: inconclusive; Cruzain noTriton: 19%; RE007 growth inh: 22%; Cruzain Triton: -6.0%; SARS PLpro yeast: 1%; 2A StopGo: inconclusive

How did Cc1ccccc1-n1c(N)c(C(=O)Nc2ccc(F)cc2)sc1=S do in these assays?
Lassa entry inh: inconclusive; Marburg entry inh: inconclusive; RE007 growth inh: 4%; SARS PLpro yeast: 0%; 2A StopGo: -4%

How did CC(=O)c1cccc(NC(=O)Cn2nc(-c3ccc(Cl)cc3)ccc2=O)c1 do in these assays?
NS1 inh: 8%; RE007 growth inh: -8%; SARS PLpro yeast: 0%; 2A StopGo: -1%

What do the screens show for `CCCNC(=O)c1n[nH]c(=O)c2ccccc12`?
Lassa entry inh: -10%; NS1 inh: -1%; Marburg entry inh: 25%; Cruzain noTriton: 2%; RE007 growth inh: -5%; Cruzain Triton: 5.7%; SARS PLpro yeast: 4%; 2A StopGo: -15%

Results for O=C(c1ccc(F)cc1)N1c2ncnn2C2(CCCCC2)[C@@H]2CCCC[C@@H]21 ?
Lassa entry inh: -10%[46.1 µM]; Marburg entry inh: inconclusive; Cruzain noTriton: -9%; Cruzain Triton: -5.0%; 2A StopGo: inconclusive

Results for COCc1cc(C)nc2c1C(=O)NC(c1ccc(Br)cc1)N2Cc1ccccc1 (configuration not stated) ?
Lassa entry inh: 5%[46.1 µM]; Marburg entry inh: inconclusive; Cruzain noTriton: 2%; Cruzain Triton: -1.3%; 2A StopGo: -17%

What do the screens show for `Cn1c(CCNC(=O)c2cccs2)nnc1SCC(=O)Nc1nc(-c2ccccc2)cs1`?
Lassa entry inh: -14%; NS1 inh: -7%; Marburg entry inh: 28%; Cruzain noTriton: 6%; RE007 growth inh: 7%; Cruzain Triton: 2.9%; SARS PLpro yeast: -5%; 2A StopGo: -16%

What do the screens show for `O=C(O)c1ccc(OS(=O)(=O)c2ccc(Cl)s2)cc1`?
Lassa entry inh: 21%; Marburg entry inh: -12%; RE007 growth inh: -7%; SARS PLpro yeast: 1%; 2A StopGo: 6%

What do the screens show for `Cc1noc(C)c1COC(=O)c1ccc(S(=O)(=O)N2CCCCC2)cc1`?
Lassa entry inh: -4%[46.1 µM]; Marburg entry inh: inconclusive; RE007 growth inh: -7%; SARS PLpro yeast: -6%; 2A StopGo: -16%

Results for COc1oc(C(=O)NC2CCCCC2)c(-c2ccc(Cl)cc2)c1S(=O)(=O)c1ccccc1 ?
Lassa entry inh: -7%; Marburg entry inh: -1%; RE007 growth inh: -3%; 2A StopGo: 14%

How did Cc1ccc(CNC(=O)Cn2cnc3cc([N+](=O)[O-])ccc3c2=O)cc1 do in these assays?
Lassa entry inh: 23%; NS1 inh: 5%; Marburg entry inh: 0%; RE007 growth inh: 9%; SARS PLpro yeast: 0%; 2A StopGo: -13%

How did CCn1nnnc1SCC(=O)Nc1nnc(C(C)C)s1 do in these assays?
Lassa entry inh: 0%; NS1 inh: -11%; Marburg entry inh: -1%; Cruzain noTriton: 9%; RE007 growth inh: 12%; Cruzain Triton: -5.8%; SARS PLpro yeast: -2%; 2A StopGo: 11%

Results for COc1ccccc1NC(=O)Cn1c(=O)oc2cc(S(=O)(=O)NCc3ccccc3)ccc21 ?
Marburg entry inh: -15%[46.1 µM]; Cruzain noTriton: 14%; Cruzain Triton: -4.6%; 2A StopGo: 12%

Results for CCN(CC(=O)Nc1ccc(NC(C)=O)cc1)C(=O)/C=C/c1cn(-c2ccccc2)nc1-c1cccs1 ?
Lassa entry inh: inconclusive; Marburg entry inh: -17%; RE007 growth inh: -16%; SARS PLpro yeast: 2%; 2A StopGo: -1%

Results for Cc1ccc(-c2csc(NC(=O)C3=NN(C4CCS(=O)(=O)C4)C(=O)CC3)n2)cc1 (configuration not stated) ?
NS1 inh: -2%; RE007 growth inh: -17%; SARS PLpro yeast: 0%; 2A StopGo: -18%

Results for Cc1ccccc1NC(=S)N(Cc1ccccc1)Cc1cccs1 ?
Lassa entry inh: 27%[46.1 µM]; NS1 inh: 3%; Marburg entry inh: -19%[46.1 µM]; RE007 growth inh: -14%; SARS PLpro yeast: 0%; 2A StopGo: 4%

Results for O=C(CCCn1c(SCc2cccc(F)c2)nc2ccccc2c1=O)NCC1CCCO1 (configuration not stated) ?
Lassa entry inh: -19%[46.1 µM]; Marburg entry inh: inconclusive; RE007 growth inh: 11%; SARS PLpro yeast: -6%; 2A StopGo: -26%
